# AmpC inh no det: Promiscuous and Specific Inhibitors of AmpC Beta-Lactamase (assay without detergent) | AmpC nitrocefin hydrolysis, absorbance 480 nm, no detergent; potencies from a single point are estimates | P00811 | 71,000 compounds, 1.8% hits | AID 585, 2007 | Potency, µM (series often up to 28.7 µM), inactives show at the highest dose activity change, negative = inhibition; active = falling curve, for most hits resting on a single point; inconclusive = weak or doubtful change; inactive = flat or rising curve; note: % of control where 0% means no effect; about half of the hits show no inhibition at the top dose; a quarter of the inactives give rising signals
# Target sequence (P00811 whole entry, looked up): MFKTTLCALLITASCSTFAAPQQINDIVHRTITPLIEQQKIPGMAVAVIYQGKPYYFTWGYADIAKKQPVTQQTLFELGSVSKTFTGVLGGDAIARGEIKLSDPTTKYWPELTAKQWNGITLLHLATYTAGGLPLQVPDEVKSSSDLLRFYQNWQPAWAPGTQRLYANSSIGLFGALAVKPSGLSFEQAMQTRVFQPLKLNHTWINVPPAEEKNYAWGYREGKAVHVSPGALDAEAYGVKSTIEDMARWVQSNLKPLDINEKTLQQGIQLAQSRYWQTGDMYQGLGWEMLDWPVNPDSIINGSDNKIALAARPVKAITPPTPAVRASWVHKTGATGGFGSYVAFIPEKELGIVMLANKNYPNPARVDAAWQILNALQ
#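 AmpC in 20 mM phosphate buffer pH 7.0 was preincubated 15 min at room temperature with compounds. Nitrocefin (800 uM stock) was then added and hydrolysis followed at 480 nm every 20 s for 4 min.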
# Numbers without * were called inactive; u = inconclusive; & = joins results of further samples; [ ] = remark or other dose. Potency is the fitted concentration of half-maximal effect. Not all compounds are listed (hit frequency here may not be typical).
compound	AmpC inh no det
CCOC(=O)c1[nH]c(C)c(C(=O)Nc2ccc(C)c(F)c2)c1C	9%
O=C(O)COc1ccccc1C1C2C(=O)N(c3ccccc3)C(=O)C2ON1c1ccccc1 (centres undefined)	17%
CN1CCNC(=O)C1CC(=O)O (centres undefined)	12%
O=C1CC(N2CCN(c3cccc(C(F)(F)F)c3)CC2)C(=O)N1c1ccc(F)cc1 (centres undefined)	91%
COC(=O)c1sc(N2C(=O)c3oc4ccccc4c(=O)c3C2c2cccs2)nc1C (centres undefined)	29%
Cn1c(SCC(=O)Nc2cccc(NC(=O)c3cccs3)c2)nnc1-c1ccncc1	3%
CCOc1ccc2[nH]c(=O)c(CN(CCCO)C(C)=O)cc2c1	1%
Nc1nc(C(=O)N2CCOCC2)nn1C(=O)c1ccc(Cl)cc1	4µM*[single pt active]
COc1ccc(S(=O)(=O)N2CCCC(C(=O)NCc3ccncc3)C2)cc1Cl (centres undefined)	50%
COc1cccc(C2C(C#N)=C(N)OC3=C2C(=O)CCC3)c1OC(=O)c1ccco1 (centres undefined)	-3%
CN1CCN(Cc2ccccc2C(F)(F)F)CC1	1%
COc1cccc(C2/C(=C(\O)c3c(C)nc4c(C)cccn34)C(=O)C(=O)N2CCCN(C)C)c1OC (centres undefined)	-2%
COC(=O)c1ccc(Oc2nc(Nc3ccc(F)cc3)nc(N3CCCC3)n2)cc1	-6%
O=C1NC2(CCCCC2)N=C1c1ccccc1	19%
CCCC(=O)N1c2ccccc2[C@@H](N(C(C)=O)c2ccccc2)C[C@H]1C	-16%
Cc1onc(-c2ccccc2)c1C(=O)Nc1ccc(S(=O)(=O)NC2=NCCCCC2)cc1	26%
COc1ccc(CN2CC(C(=O)N3CCOCC3)CC2=O)cc1 (centres undefined)	-4%
Cc1c(C)n(C(=O)CN2CCN(c3ccccn3)CC2)c2ccccc12	101%
CCCCNS(=O)(=O)c1cccc(S(=O)(=O)N2CCCC2)c1	-5%
O=C(NC1CCCCC1)C(c1ccccc1)N(Cc1ccco1)C(=O)Cn1cnc2ccccc21 (centres undefined)	79%
CC(=O)N=c1sc2nc3ccccc3nc2n1N(C(C)=O)C(C)=O	2%
NC(N)=NC[C@H](N)C(=O)O	3%[5.75 µM]
CC(C)OC(=O)Cn1cnc2ccc(Br)cc2c1=O	8%
COc1ccc(-c2csc(N3CCN(Cc4ccc5c(c4)OCO5)CC3)n2)cc1	14%
CCOC(=O)C1CCCN(C(=O)c2sc3nc(-c4ccc(OC)cc4)cn3c2C)C1 (centres undefined)	102%

# Three compounds already listed, arranged by number of heavy atoms, descending.
compound	AmpC inh no det
Cc1onc(-c2ccccc2)c1C(=O)Nc1ccc(S(=O)(=O)NC2=NCCCCC2)cc1	26%
COc1cccc(C2C(C#N)=C(N)OC3=C2C(=O)CCC3)c1OC(=O)c1ccco1 (centres undefined)	-3%
NC(N)=NC[C@H](N)C(=O)O	3%[5.75 µM]

# Following part.
compound	AmpC inh no det
CCCNC(=O)c1ccccc1NS(=O)(=O)c1ccc(OC)c(OC)c1	5%
Cc1nn2cc(-c3ccc(N)cc3)nc2s1	13%
CC(C)C(c1nnnn1C1CCCC1)N1CCN(c2ccccc2F)CC1 (centres undefined)	43%
CCCCc1nc2ccccc2n2cc3c(=O)n(C)c(=O)n(C)c3c12	-4%
Clc1ccccc1-c1nnc2sc(-c3ccccn3)nn12	3%
NC[C@@H](O)CSP(=O)(O)O	4%[5.75 µM]
Cc1cccc(N2CCN(Cc3c(C)n(C)n(-c4ccccc4)c3=O)CC2)c1C	49%
Cc1nn(Cc2ccc(Cl)c(Cl)c2)c(C)c1NC(=O)c1cc(-c2ccc3c(c2)OCO3)on1	8%
CC(=O)Nn1cc2c(c1-c1ccccc1)c(=O)n(C)c(=O)n2C	-7%
Cc1ccc2nc(C3CCN(C(=O)c4ccco4)CC3)[nH]c2c1	2%
NC[C@@H](O)CSCc1ccc(Cl)cc1	0%[5.75 µM]
CCOCC(=O)Nc1nc2ccc(OCC)cc2s1	0%
Cn1c(NC(=O)C(C)(C)Oc2ccc(Cl)cc2)cc(=O)n(C)c1=O	29%
CCOC(=O)N1CCN(c2cc(=O)n(Cc3ccc(F)cc3)c(=O)[nH]2)CC1	10%
CCN1CCN(c2ccc(NC(=O)c3cccc4ncccc34)cc2)CC1	-6%
COc1ccc2[nH]c(=O)c(CN(C(=O)NC3CCCCC3)C3CCCC3)cc2c1	15%
O=C(NCc1ccco1)C1CCN(S(=O)(=O)c2cccc3cccnc23)CC1	10%
O=C(Nc1ccc2c(c1)OCO2)C1CCCN1C(=O)OCc1ccccc1 (centres undefined)	16%
CC(N)=NCCC[C@H](N)C(=O)O	15%&-8%
O=C(CN1C(=O)c2ccccc2C1=O)N1CCOCC1	-10%
Cc1cc2n(n1)C(c1c[nH]c3ccccc13)Nc1ccccc1-2 (centres undefined)	5%
COc1ccc(NC(=O)[C@@H]2[C@@H]3C(=O)N(C4CCCCC4)C(=O)[C@@H]3C3c4ccccc4C=CN32)cc1 (some centres undefined)	14%
O=C(NC1CCN(C(=O)NCc2ccccc2)CC1)c1ccco1	8%
COc1cccc(-c2nnn(CC(=O)Nc3ccc(C)cc3C)n2)c1OC	23%
CCCn1c(=S)[nH]c2cc(C(=O)N3CCCC(C(=O)OCC)C3)ccc2c1=O (centres undefined)	36%

# Molecules from the list above with fluorine:
compound	AmpC inh no det
CCOC(=O)c1[nH]c(C)c(C(=O)Nc2ccc(C)c(F)c2)c1C	9%
O=C1CC(N2CCN(c3cccc(C(F)(F)F)c3)CC2)C(=O)N1c1ccc(F)cc1 (centres undefined)	91%
CN1CCN(Cc2ccccc2C(F)(F)F)CC1	1%
COC(=O)c1ccc(Oc2nc(Nc3ccc(F)cc3)nc(N3CCCC3)n2)cc1	-6%
CC(C)C(c1nnnn1C1CCCC1)N1CCN(c2ccccc2F)CC1 (centres undefined)	43%
CCOC(=O)N1CCN(c2cc(=O)n(Cc3ccc(F)cc3)c(=O)[nH]2)CC1	10%

# (cont.)
compound	AmpC inh no det
COc1ccc(NC(=O)c2ccccc2C)c(OC)c1	6%
CC(C)OC(=O)CSc1ncnc2c1cnn2Cc1ccccc1	20%
Cc1ccccc1CN1CCCNC1=O	3%
CCCSC1=C(C#N)C(c2ccccc2C)CC(=O)N1 (centres undefined)	-2%
Cc1ccc2c(c1)c(C)c(C)n2CC(O)Cn1nc(C)c(Br)c1C (centres undefined)	125%
Cc1oc2c(C)c3oc(=O)c4c(c3cc2c1C)CCC4	23%
Cc1noc(C)c1-c1cc(Nc2ccc(F)cc2)ncn1	6%
CCCN1/C(=C(/C#N)C2=NS(=O)(=O)c3ccccc32)N(C)c2ccccc21	11%
CC1CCCCN1CCNC(=O)C1CCN(S(=O)(=O)c2cccc3cccnc23)CC1 (centres undefined)	51%
COC(=O)Nc1ccc2c(c1)N(C(=O)CCN1CCN3CCCC3C1)c1ccccc1CC2 (centres undefined)	33%
CCOc1ccc(C(=O)Nc2nncs2)cc1OCC	14%
O=C(c1cccc(F)c1)N1C2C=CC(C2)C1(C(F)(F)F)C(F)(F)F (centres undefined)	-14%
CCOc1cc(C(N)=O)cc(OCC)c1OCC	0%
CCOC(=O)C1CCN(CC(O)COc2ccc(C(C)(C)CC)cc2)CC1 (centres undefined)	87%
Cn1c(=O)oc2cc(S(=O)(=O)N3CCc4ccccc4C3)ccc21	-3%
O=C(Nc1ccc(Cl)cc1)N(Cc1cccs1)Cc1cccs1	5µM*
O=C(NC1CCCCCC1)C1CCCN(S(=O)(=O)c2cccs2)C1 (centres undefined)	6%
C#CCOC(=O)C1=CCCN(C)C1	9%&7%
Cn1c(=O)cc(OCCCC(=O)N2CCCCC2)c2ccccc21	32%
O=C(c1ccncc1)N1CCC[C@@]2(CCN(Cc3ccncc3)C2)C1	13%
CCOC(=O)N1CCN(CCC(=O)Nc2ccc(OC(F)(F)F)cc2)CC1	58%
Fc1ccc(-c2nc3nc4ccccc4nc3n2Cc2ccco2)cc1	29%
CC(=O)c1cc2c(cc1NC(=O)CSc1nnc(C)s1)OCO2	14%
O=C(Cc1cccs1)Nc1nnc(SCC(=O)N2CCCCC2)s1	-2%
O=C(CCCCCN1C(=O)c2ccccc2C1=O)Nc1ccc(S(=O)(=O)N2CCCCC2)cc1	-5%

# (continued)
compound	AmpC inh no det
CCCCN(C)C(=O)c1ccc(CS(=O)(=O)c2ccccc2C)o1	4µM*[single pt active]
CCNC(=O)C1CCN(S(=O)(=O)c2ccc(F)cc2)CC1	-6%
CSCCC(NS(=O)(=O)c1ccc(Cl)cc1)C(=O)OCC(=O)N1CCOCC1 (centres undefined)	40%
O=C(c1ccccc1S(=O)(=O)NCc1ccccc1)N1CCCCC1	24%
COc1ccc(-c2nnc3sc(-c4ccco4)nn23)cc1OC	-3%
CCN(CC)CCCN(C(C)=O)c1nc(-c2cc(OC)ccc2OC)cs1	41%
CCN(CC)S(=O)(=O)c1ccc2[nH]cc(C(=O)NCCN3CCCCCC3)c(=O)c2c1	12%
O=C(CN(Cc1ccco1)C(=O)c1cc(=O)[nH]c2ccccc12)Nc1ccccc1Br	29%
CCC(Sc1nnnn1-c1ccccc1)C(=O)NC(C)c1ccccc1 (centres undefined)	6%
Cc1cc(NC(=O)c2ccc3nc(-c4ccccc4)c(-c4ccccc4)nc3c2)no1	3%
COc1ccc(-c2noc(-c3ccccc3F)n2)cc1	3%
Cc1cccc(OCc2nnc(SCc3cc(=O)n4cc(Br)ccc4n3)o2)c1	47%
CCOC(=O)c1ccc(N2Cc3ccccc3C2)cc1O	8%
O=C(CCCn1c(=S)[nH]c2ccccc2c1=O)N1CCCCC1	-12%
O=C(O)CP(=O)(O)O	4%[5.75 µM]
CCC(Sc1nnnn1-c1ccccc1)C(=O)Nc1nc2ccccc2s1 (centres undefined)	-18%
O=C(c1ccncc1)N1CCC2(CC1)CN(c1ccc(-c3ccccc3)cc1)C2	86%
Cc1noc(C)c1C(=O)N1CCC2(CCCN(CC(C)C)C2)CC1	131%
Cc1cc(C(=O)COC(=O)Cn2cnc3c2c(=O)n(C)c(=O)n3C)c(C)n1C	9%
c1ccc2cc(NCNc3ccc4ccccc4c3)ccc2c1	-15%[5.75 µM]
CCN(N=O)C(N)=O	10%
Cc1cc2c(c(C)nn2-c2ccccc2)c(=O)o1	13%
CCOC(=O)Cc1csc(NC(=O)CCN2C(=O)c3ccccc3C2=O)n1	12%
O=C1c2cccnc2C(O)N1Cc1cccs1 (centres undefined)	5%
Cc1sc2nc(SCC(=O)NCc3ccco3)[nH]c(=O)c2c1C	-10%

# Next section.
compound	AmpC inh no det
CCn1c(O)c(/C=N/n2cnnc2)sc1=S	-11%
CC(NC(=O)c1ccc(S(=O)(=O)N(C)C)cc1)c1ccccc1 (centres undefined)	12%
O=C(Cn1cnc2c(cnn2-c2ccc(F)cc2)c1=O)N1CCCc2ccccc21	22%
CCCCC(=O)Nc1ccc2c(c1)nc1n2CCSC1	2%
Cc1ccc(C(=O)NCc2cccs2)cc1S(=O)(=O)N1CCCCC1	-4%
COc1ccc(-c2nn3c(-c4cccc(C)c4)nnc3s2)cc1OC	109%
Cc1ccc(-c2csc3nnc(SCC(=O)Nc4cccc(C)n4)n23)cc1	7%
COc1ccc(NC(=O)CSc2nnc(-c3ccccc3C)n2N)cc1OC	0%
O=C(NCc1cccs1)C1CCC(CNS(=O)(=O)c2cccs2)CC1 (centres undefined)	-1%
O=C(CCCn1c(=O)[nH]c2ccccc2c1=O)NC1CCCCCC1	13%
O=C(Nc1nnc(C23CC4CC(CC(C4)C2)C3)s1)c1ccco1	-3%
COCCn1c(=O)c(-c2cccs2)nc2cnc(N3CCNCC3)nc21	67%
CCN1C(=O)C2C(c3ccccc3F)NC(Cc3ccc(O)cc3)(C(=O)OC)C2C1=O (centres undefined)	22%
COc1cccc(NC(=O)Cn2nnc(C(=O)Nc3ccccc3)c2N)c1	-13%
CCCCOC(=O)C1Cc2ccccc2C(=O)O1 (centres undefined)	14%
CCOC1(OCC)N=C(N)C2(C#N)C(c3ccc(NC(C)=O)cc3)C12C#N (centres undefined)	5%
CCC1=C(C[C@H]2NCCc3ccccc32)C[C@@H]2c3cc(OC)c(OC)cc3CCN2C1	6%[5.75 µM]
COc1ccccc1-c1nc(C#N)c(N2CCN(C(c3ccccc3)c3ccccc3)CC2)o1	11%
Cc1cc(N2CCN(C(=O)c3ccco3)CC2)n2ncnc2n1	-1%
Cc1csc(NC(=O)c2cc3c(s2)CCC3)n1	-16%
CN(C)C(=O)N1CCC(C(=O)NC2CCCCCCC2)CC1	9%
CS(=O)(=O)N1CCC[C@@]2(CCN(C(=O)Nc3cccc(C#N)c3)C2)C1	3%
O=C(O)CSc1nnc(CNc2ccc(Cl)cc2)n1Cc1ccccc1	13%
COc1ccc(C2C(C(C)=O)=C(O)C(=O)N2CCCn2ccnc2)cc1OC (centres undefined)	-16%
O=c1oc2cc(O)ccc2c2c1CCCC2	-16%

# (further entries)
compound	AmpC inh no det
COc1ccc(-n2c(CNC(=O)c3cc(OC)c(OC)c(OC)c3)n[nH]c2=S)cc1	12%
COc1ccc(-c2coc3cc(O)ccc3c2=O)cc1	-13%
COc1ccc(OC)c(C2=NOC(C(=O)Nc3c(C)n(C)n(-c4ccccc4)c3=O)C2)c1 (centres undefined)	24%
COc1cc2nc(C3CCC3)n(NC(=O)COc3ccccc3)c(=O)c2cc1OC	99%
Cc1ccc(Nc2cc(=O)n(C3CCCCC3)c(=O)[nH]2)cc1C	u
O=C(CC1OC(=O)c2ccccc21)c1ccco1 (centres undefined)	-12%
O=C(Nc1nnc(C2CCCCC2)s1)c1ccco1	-1%

# Source: PubChem BioAssay
